Bioassay records from PubChem.
GLA inh pH 4.5: qHTS Assay for Inhibitors of Human alpha-Galactosidase at pH 4.5 | Alpha-galactosidase A (Homo sapiens), P06280 | purified enzyme, 4-MU-alpha-Gal fluorescence, pH 4.5 | activity change, negative = inhibition, % at 105 µM | 230,000 tested, under 10 active | AID 1467, 2008; inconclusive = small, poorly fitted or top-dose-only inhibition, or a rising curve; inactive = flat fitted curve, though single readings scatter; no compound was filed as active;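 also: 0% = full activity with enzyme and -100% = basal without enzyme; dose as in the result columns while the protocol names 77 µM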
miR-21 FLuc: qHTS Assay for Modulators of miRNAs and/orActivators of miR-21; HeLa miR-21 FLuc reporter, luciferase, 48 h; Potency, µM (highest dose often 38.3 µM), for the others: top-dose reporter change, positive = more light; 340,000 tested, under 10 active; AID 2288, 2010; active = well fitted rising curve with a large enough effect; inconclusive = small, poorly fitted or top-dose-only effect; inactive = no such curve, though single readings can be large or run the other way;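 also: % of control where 0% means no effect; miR-21 action dims this reporter so a rising signal means less miR-21 action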
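HeLa cells stably expressing CMV-driven firefly luciferase with a downstream miR-21 binding sequence, endogenously expressing miR-21, were treated with titrations (up to about 40uM final) for 48 hours at 37 degree Celsius. Luciferase luminescence was read after lysis.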
Rango-impB inh: qHTS Assay for Inhibitors of Rango (Ran-regulated importin-beta cargo) - Importin beta complex formation; 340,000 compounds, 0.031% hits; Rango CFP/YFP FRET sensor + importin beta, 45 min; Potency, µM (titrated, usually from 92.2 µM), for the others: top-dose inhibition of complex formation; Importin subunit beta-1 (Homo sapiens), Q14974; active = rising FRET ratio curve, often small or poorly fitted; inconclusive = mostly compound fluorescence or quenching in the first reads; inactive = flat curves in all reads;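 also: potency is read from the fitted curve at half-maximal effect; 0% = DMSO wells and 100% = buffer wells lacking importin beta; nearly all actives have a fitted effect of over 15% in size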
Target sequence (Q14974 whole entry, looked up): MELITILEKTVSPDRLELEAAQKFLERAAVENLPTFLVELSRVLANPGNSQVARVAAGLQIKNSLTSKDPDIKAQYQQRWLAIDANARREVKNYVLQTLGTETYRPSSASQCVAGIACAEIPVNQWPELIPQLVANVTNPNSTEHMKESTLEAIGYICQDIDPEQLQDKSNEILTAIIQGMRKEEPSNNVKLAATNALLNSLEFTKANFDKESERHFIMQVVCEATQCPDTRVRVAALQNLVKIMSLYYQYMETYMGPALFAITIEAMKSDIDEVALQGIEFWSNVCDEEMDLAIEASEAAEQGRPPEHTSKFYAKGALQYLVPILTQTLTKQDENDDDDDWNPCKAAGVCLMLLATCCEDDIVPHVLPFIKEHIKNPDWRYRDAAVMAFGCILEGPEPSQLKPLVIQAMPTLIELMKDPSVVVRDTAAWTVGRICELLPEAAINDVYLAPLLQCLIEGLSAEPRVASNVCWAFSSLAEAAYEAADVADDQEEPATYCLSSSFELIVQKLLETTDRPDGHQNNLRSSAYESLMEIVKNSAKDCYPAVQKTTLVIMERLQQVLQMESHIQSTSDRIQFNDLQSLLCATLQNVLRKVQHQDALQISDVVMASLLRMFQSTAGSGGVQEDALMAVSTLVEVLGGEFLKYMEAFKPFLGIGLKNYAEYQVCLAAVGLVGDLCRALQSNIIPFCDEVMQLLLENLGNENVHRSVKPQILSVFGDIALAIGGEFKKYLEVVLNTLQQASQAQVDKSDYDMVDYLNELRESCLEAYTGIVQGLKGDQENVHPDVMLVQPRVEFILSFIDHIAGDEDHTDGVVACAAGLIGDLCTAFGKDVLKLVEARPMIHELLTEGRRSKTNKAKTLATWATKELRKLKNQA
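Inhibition scored from the CFP 486 nm/YFP 530 nm FRET ratio 45 min after adding 0.125 microM importin beta to 50 nM Rango biosensor preincubated 5 min with compound (room temperature, PBS with DTT, Tween-20, BSA). No-importin wells as positive control.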
Rango release inh: qHTS Assay for Inhibitors of RanGTP induced Rango (Ran-regulated importin-beta cargo) - Importin beta complex dissociation | Snurportin-1 (Homo sapiens) + GTP-binding nuclear protein Ran (Homo sapiens) + Importin … | 340,000 compounds, 0.071% hits | Biochemical FRET Rango-importin beta, RanGTP-induced dissociation | Potency, µM (highest dose often 46.1 µM), for the others: at the highest dose activity change, negative = inhibition; active means falling FRET ratio curve, often poorly fitted, with flat reads before Ran was added; inconclusive means other falling curves, or compound fluorescence or quenching; inactive means flat or rising ratio curve;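 also: potency is read from the fitted curve at half-maximal effect; % of control where 0% means no effect; nearly all actives have a fitted effect of over 45% in size; -100% = wells without RanGTP and RCC1; the record marks most hits as doubtful in a second field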
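Two FRET readings bracket the reaction: one 5 min after compound meets Rango–importin beta, another 45 min after RanGTP-RCC1 (0.6 uM Ran, 0.2 uM RCC1, 2 mM GTP) is added. Only the second defines inhibition.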
* = called active by the depositor; ? = inconclusive; nt = no result given; & = joins results of further samples. The list is partial (hit frequency here may not be typical).

GLA inh pH 4.5 | miR-21 FLuc | Rango-impB inh | Rango release inh | SMILES
3 | -36% | 0.5% | 4% | Cc1cc(C)n2nc(C(=O)NNC(=O)c3ccc(Cl)cc3)nc2n1
9 | -5% | -0.2% | 7% | CC(C)CC(=O)Nc1ccc(Oc2ccc(NC(=O)CC(C)C)cc2)cc1
-3 | 13% | 0.3% | 1% | O=C(NNc1ccccc1F)c1ccccc1
nt | 3% | 7.6% | -6% | O=C1CN(C(=O)c2ccccc2F)C(c2ccc(F)cc2)c2cc(F)ccc2N1 (centres undefined)
nt | -42% | -0.2% | 6% | CC(C)(C)C1CCC(=NNC(=O)c2ccco2)CC1 (centres undefined)
8 | -48% | 6.1% | 14% | O=C(N/N=C/c1ccc(Cl)cc1)Nc1ccccc1
-18 | -4% | ? | ? | COc1ccc(C(=O)N/N=C/c2sc(N3CCOCC3)nc2-c2ccccc2)cc1OC
-10 | -2% | -1.0% | 3% | COC(=O)C1=C(C)N(C)C(C)=C(C(=O)OC)C1c1ccc(Cl)cc1
-7 | -19% | 2.0% | 2% | O=C(/C=C/c1cccs1)Nc1ccc(N2CCOCC2)c(S(=O)(=O)Nc2cc(Cl)ccc2Cl)c1
1 | -12% | -2.7% | 1% | COc1ccccc1N1CCN(C(=O)c2ccc(Br)s2)CC1
2 | 19% | -3.0% | 18% | Cc1cccc(CN2CCN(CC(=O)NCCCN3CCN(c4ccc(F)cc4)CC3)C2=O)c1
nt | nt | -3.4% | -3% | Oc1ccc(C[C@H]2CNCCN2CC2CCCCC2)cc1
nt | -53% | 0.9% | -8% | N#Cc1ccccc1NC(=O)c1ccc2c(c1)OCO2
-1 | 0% | -3.3% | 8% | COC(=O)c1ccc(C2NC(=O)NC(C)=C2C(=O)N(C)C)cc1 (centres undefined)
-1 | -1% | -0.9% | -3% | CC(C)(C)c1cc[n+](CC(=O)Nc2cc(C(F)(F)F)ccc2N2CCOCC2)cc1
nt | nt | 0.0% | 2% | CCN(C(=O)COC(=O)c1ccc(=O)n(Cc2ccccc2)n1)C1CCS(=O)(=O)C1 (centres undefined)
nt | nt | 0.2% | 4% | Cc1ccc(S(=O)(=O)N2CCCC2CNC(=O)C(=O)Nc2ccc(F)cc2F)cc1 (centres undefined)
-17 | -4% | 2.9% | 8% | Cc1c(NC(=O)/C(=C\c2ccccc2)NC(=O)c2ccccc2)c(=O)n(-c2ccccc2)n1C
5 | -5% | -1.0% | 14% | O=C(CSCC(=O)OCn1nnc2ccccc2c1=O)Nc1ccc(Cl)cc1
7 | 3% | 1.2% | -15% | Cc1ccc(C(C2=C(O)CC(C)(C)CC2=O)C2C(=O)CC(C)(C)CC2=O)s1 (centres undefined)
3 | 14% | -1.0% | -6% | CSCC(=O)Nc1ccc(F)c(Cl)c1
-7 | 11% | -2.9% | 4% | COc1cccc2c(SCC(=O)N/N=C/c3ccc(O)cc3O)cc(C)nc12
-5 | 14% | -7.8% | 24% | CCOC(=O)c1c(NC(=O)CN2C(=O)NC(C)(c3ccc(Cl)cc3)C2=O)sc(C(=O)NC)c1C (centres undefined)
nt | nt | 0.1% | 1% | Cc1sc2ncnc(N3CCC(C(=O)NNC(=O)COc4cccc(C(F)(F)F)c4)CC3)c2c1C
14 | -10% | 2.6% | -5% | Cc1cccc(C(=O)Oc2ccccc2-c2nnco2)c1
nt | nt | 0.7% | 8% | C[C@@]12C(=O)Nc3ccc(Cl)cc3C(=O)N1[C@H]1c3ccccc3OC[C@@H]1[C@@H]2c1ccccc1
nt | 2% | 0.4% | -14% | Cc1nnc(NC(=O)CN2CCN(Cc3ccccc3)CC2)s1
0 | -44% | 1.1% | -4% | CC1(C)CC(=O)c2sc(NC(=O)C(C)(C)C)nc2C1
-1 | -7% | 0.7% | -11% | COCCN1CCc2[nH]c(=S)[nH]c(=O)c2C1
1 | ? | -1.8% | -8% | O=S(=O)(C/C(=C/CO)S(=O)(=O)c1ccccc1)c1ccccc1
nt | 3% | 5.4% | 3% | O=C(CN(Cc1ccccc1Cl)C(=O)c1csnn1)NCc1ccc(F)cc1
4 | -11% | -2.1% | 5% | C=C(CO)C1Cc2cc(C(C)=O)ccc2O1 (centres undefined)
3 | -6% | 0.3% | -16% | O=C(COc1cccnc1[N+](=O)[O-])N1CCc2ccccc2C1
-7 | -2% | -4.4% | 31% | CC(C)(C)c1cccc(C2(O)C(=O)c3ccccc3C2=O)c1O
nt | 0% | -0.4% | 17% | OC1(c2ccccc2)CNCCc2ccccc21 (centres undefined)
2 | 0%&-2% | -0.2% | -14% | COc1cccc(NC(=O)C2CCCN(S(=O)(=O)c3cccc4nonc34)C2)c1 (centres undefined)
nt | nt | 4.2% | -17% | CC(=O)Nc1ccc(NC(=O)C(C)Sc2nc3nc(C)cc(C)n3n2)cc1 (centres undefined)
9 | 1% | 4.4% | -4% | COc1ccc(C2C=C(C34CC5CC(CC(C5)C3)C4)NC(=S)N2)cc1 (centres undefined)
nt | nt | -1.4% | -8% | c1ccc(C2(CN3CCNC[C@H]3Cc3cccc4ccccc34)CC2)cc1
-11 | 2% | -0.2% | -3% | COc1ccccc1NC(=S)NCc1cccnc1
-3 | -12% | -0.8% | -6% | COc1ccc(/C=C/C(=O)N2CCCC2)cc1OC
3 | 0% | 4.5% | 8% | CC1CCN(C(=O)CN(CCc2ccccc2)S(C)(=O)=O)CC1
6 | -2% | 8.8% | -6% | Cc1cnc(C(=O)OCC(=O)Nc2cccc(Cl)c2)cn1
-7 | -3% | -0.1% | -10% | COC(=O)c1cc(C(=O)OC)cc(N2C(=O)CC(Sc3nc(C)cc(C)n3)C2=O)c1 (centres undefined)
nt | nt | ? | -15% | COc1ccc2sc(-c3ccc(SC)cc3)c(/C=C/c3ccc(OC)c(OC)c3)c2c1
-29 | ? | 0.9% | 6% | CN(C)CCCn1c(SCC(=O)N2c3ccccc3Sc3ccccc32)nc2ccccc2c1=O
nt | 8%&-14% | -2.0% | -2% | Cc1ccc(CNS(=O)(=O)c2cc3c(cc2C)N(C)CCO3)cc1
nt | -53% | -0.4% | 11% | O=C(Cc1cccs1)NCc1cccc(Br)c1
5 | -1% | 0.0% | 8% | CCNc1nc(NCC)nc(N/N=C(\C)c2ccc(OC)cc2)n1
-3 | 11% | -2.3% | -1% | c1ccc(N2CCN(Cc3cnc(N4CCOCC4)s3)CC2)cc1
-5 | -11% | 2.7% | 8% | CC(C)NC(=O)c1n[nH]c(=O)c2ccccc12
-12 | 1% | 5.9% | 6% | O=C(CSc1nc2c(cnn2-c2ccccc2)c(=O)[nH]1)N1CCOCC1
3 | 24% | -1.1% | 10% | CC(=O)c1ccc(N2CCN(C(=S)Nc3ccccc3C(F)(F)F)CC2)cc1
3 | -60% | -5.2% | 0% | O=C(/C=C/c1cccc(Cl)c1)Nc1ncccn1
nt | nt | -8.3% | -11% | c1ccc2c(c1)ccc1[nH]c3c(c12)CCCC3
-6 | 8% | 0.5% | 1% | COc1ccc(C(=O)N/C(=C\c2ccco2)C(=O)NCCCn2ccnc2)cc1
-4 | -4% | 3.7% | -9% | Cc1[nH][nH]c(=O)c1C(c1ccc(-c2ccc(C(=O)O)cc2)o1)c1c(C)[nH][nH]c1=O
1 | -7% | 0.9% | 1% | Nc1nc(CN2CCN(c3ccc(F)cc3)CC2)nc(N2CCCc3ccccc32)n1
nt | 13% | 3.3% | -9% | CC(C)(C)c1cc(/C=C2\NC(=O)NC2=O)cc(C(C)(C)C)c1O
nt | 23% | 1.5% | 0% | CCOc1cccc2sc(NC(=O)CCS(=O)(=O)c3ccccc3)nc12

Limited to GLA inh pH 4.5, for 2 of the compounds above:
compound	GLA inh pH 4.5
O=C(CSc1nc2c(cnn2-c2ccccc2)c(=O)[nH]1)N1CCOCC1	-12
CC(=O)c1ccc(N2CCN(C(=S)Nc3ccccc3C(F)(F)F)CC2)cc1	3

Further results follow.
GLA inh pH 4.5 | miR-21 FLuc | Rango-impB inh | Rango release inh | SMILES
nt | nt | -2.4% | -9% | COc1ccccc1CN(C)CC(=O)Nc1cccc(S(=O)(=O)N2CCCC2)c1
nt | -11% | -1.1% | -19% | Oc1ccc(Br)cc1/C=N/Nc1ccccn1
-23 | -3% | -0.2% | 12% | Cc1cc(NC(=O)CSc2ncnc3sccc23)no1
3 | 3% | -4.0% | 6% | COc1cc(OC)cc(C(=O)NNC(=O)Cc2ccc(OC)c(S(=O)(=O)N3CCOCC3)c2)c1
-9 | -60% | -0.2% | ? | CCS(=O)(=O)N1Cc2ccccc2CC1C(=O)Nc1nc2ccccc2s1 (centres undefined)
-4 | 1% | ? | ? | CCOc1ccc2nc(NCCNC(=O)Nc3ccccc3)c(C#N)cc2c1
6 | -54% | 0.2% | 9% | Fc1ccc(Nc2nc3ccccc3s2)cc1
2 | 21% | -1.3% | -3% | CCN(CC)c1ccc(NS(=O)(=O)c2ccc3c(c2)oc(=O)n3C)c(C)c1
-2 | -32% | 1.0% | -8% | N#Cc1c(-c2ccc(Cl)cc2)ccn2nc(C3CCCCC3)nc12
-4 | 0% | -5.8% | 4% | Cc1ccccc1C(=O)NC1CCN(CC(=O)Nc2nccs2)CC1
nt | -11% | 0.0% | -11% | Cc1cc(CN(C)C(=O)c2ccc3nc(Cc4ccccc4F)oc3c2)n[nH]1
0 | -4% | 0.9% | 16% | Cc1ccc(CCN2C(=O)CCC2(C)C(=O)NC2CCCC2)cc1 (centres undefined)
-4 | -12% | ? | 13% | Cc1c(Cl)cccc1NC(=O)CCCCCN1C(=O)CCC1=O
nt | nt | 0.1% | 2% | C/C=C/c1ccc(OCC(=O)Nc2cc(Cl)ccc2-n2cncn2)c(OC)c1
nt | 2% | ? | -21% | Oc1ccc(Br)cc1CNc1cnc2ccccc2c1
-4 | 9% | -0.9% | 7% | CSCC[C@H](NC(=O)OC(C)(C)C)C(=O)N/N=C/c1cccc2cccnc12
-20 | 2% | 0.3% | -17% | CCCc1cc(=O)oc2cc(OCc3cc(OC)c(OC)c(OC)c3)c(Cl)cc12
nt | -20% | -1.4% | 19% | CC(NC(=O)c1cnc2ccccc2n1)c1ccccc1 (centres undefined)
nt | -18% | -1.1% | -8% | O=C(c1ccc(N2CCCS2(=O)=O)cc1)N1CCN(c2ccccc2)CC1

In a second layout: results already given.
SMILES,GLA inh pH 4.5,miR-21 FLuc,Rango-impB inh,Rango release inh
Cc1cc(C)n2nc(C(=O)NNC(=O)c3ccc(Cl)cc3)nc2n1,3,-36%,0.5%,4%
CC(C)CC(=O)Nc1ccc(Oc2ccc(NC(=O)CC(C)C)cc2)cc1,9,-5%,-0.2%,7%
O=C(NNc1ccccc1F)c1ccccc1,-3,13%,0.3%,1%
O=C1CN(C(=O)c2ccccc2F)C(c2ccc(F)cc2)c2cc(F)ccc2N1 (centres undefined),nt,3%,7.6%,-6%
CC(C)(C)C1CCC(=NNC(=O)c2ccco2)CC1 (centres undefined),nt,-42%,-0.2%,6%
O=C(N/N=C/c1ccc(Cl)cc1)Nc1ccccc1,8,-48%,6.1%,14%
COc1ccc(C(=O)N/N=C/c2sc(N3CCOCC3)nc2-c2ccccc2)cc1OC,-18,-4%,?,?
COC(=O)C1=C(C)N(C)C(C)=C(C(=O)OC)C1c1ccc(Cl)cc1,-10,-2%,-1.0%,3%
O=C(/C=C/c1cccs1)Nc1ccc(N2CCOCC2)c(S(=O)(=O)Nc2cc(Cl)ccc2Cl)c1,-7,-19%,2.0%,2%
COc1ccccc1N1CCN(C(=O)c2ccc(Br)s2)CC1,1,-12%,-2.7%,1%
Cc1cccc(CN2CCN(CC(=O)NCCCN3CCN(c4ccc(F)cc4)CC3)C2=O)c1,2,19%,-3.0%,18%
Oc1ccc(C[C@H]2CNCCN2CC2CCCCC2)cc1,nt,nt,-3.4%,-3%
